A1 inh = inhibitors of the anti-apoptotic protein A1, read as caspase activation. hit rate 0.066% among 330,000. caspase activation, % (no concentration beside the values). MEF A1-2A-BIM cells, Caspase-Glo 3/7 luminescence, 3 h; percent of clofoctol response, vehicle zero;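 active = over half of replicate activation scores above 10%, or exactly half above 10 with the replicate mean above 10; inconclusive = replicate mean below 10 yet half the replicates above 10; inactive = over half of replicates below 10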;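 also: wells of about 30 µL received 50 nL stock; many hits fall short of the cut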
Ecoli growth = inhibitors of Escherichia coli growth; hit rate 0.21% among 330,000; OD600, 23 h; hits give low values; OD600 absorbance (test concentration not listed);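 active = OD600 absorbance below the run mean of sample wells minus 3.6 SD, in any replicate, cut at about 0.56 in these data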;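 also: stock transfer was 300 nL into about 60 µL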
Beta apoptosis = beta cell apoptosis inhibition. INS-1E cytokine-induced death, ATP luminescence, 48 h; percent of positive-control rescue, neutral wells zero. protection from apoptosis, % (no concentration beside the values). hit rate 0.8% among 300,000;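 active = all replicates at 75% or more, or half of them and the mean; inconclusive = half reach 75% but not the mean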;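 also: 0% = cytokine-treated negative control wells and 100% = positive control rescue; higher means more ATP so stronger rescue from cytokine killing; wells of about 40 µL received 100 nL stock; the first replicate is given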
Ecoli rRNA inh = selective bacterial rRNA inhibition in E. coli. AID 720706. hit rate 1.6% among 350,000. GFP signal change (wild-type ribosome), % (test concentration not listed). E. coli WT GFP vs humanized-ribosome RFP mutants, fluorescence, 24 h; hits give low values; DMSO median 0, no signal -100;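 active = significant combined selectivity score with lowered wild-type GFP, culture density cut under 30%, mutant RFP and density less affected; inactive = any of these conditions unmet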; also: one replicate is shown; some compounds called inactive have numbers as strong as hits
UCH37 inh = human UCH37 deubiquitinating enzyme inhibition. hit rate 0.33% among 330,000. AID 588478. Q9Y5K5. purified proteasome/UCH37, Ub-AMC cleavage fluorescence. inhibition, % (no concentration beside the values);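 active = mean of two replicates above 20%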;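 also: 0% = compound-free wells with enzyme and 100% = wells lacking proteasome; stock transfer was 100 nL into about 20 µL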
Target sequence (Q9Y5K5 whole entry, looked up): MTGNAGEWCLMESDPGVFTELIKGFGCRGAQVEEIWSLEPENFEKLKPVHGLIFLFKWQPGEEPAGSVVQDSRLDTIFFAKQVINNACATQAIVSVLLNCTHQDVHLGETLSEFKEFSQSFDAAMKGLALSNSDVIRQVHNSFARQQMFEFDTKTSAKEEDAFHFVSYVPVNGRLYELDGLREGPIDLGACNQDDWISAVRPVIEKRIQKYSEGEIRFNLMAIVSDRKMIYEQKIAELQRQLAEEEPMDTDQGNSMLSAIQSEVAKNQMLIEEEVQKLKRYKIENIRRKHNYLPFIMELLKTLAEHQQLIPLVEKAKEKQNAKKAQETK
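Material: Human UCH37 enzyme supplied as purified proteasome complex | Schedule: 30 min preincubation with enzyme, 25 min cleavage at room temperature | Detection: AMC fluorescence 355/460 nm | Measure: % inhibition of Ub-AMC cleavage fluorescence | Controls: Wells without proteasome as full block, compound-free enzyme plus substrate as uninhibited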
FGF22 binding = FGF22 (human) thermal shift binding. Q9HCT0. recombinant FGF22 thermal shift, SYPRO orange fluorescence; percent of sucrose octasulfate shift, DMSO zero. calls only at 9.99 µM. hit rate 1.5% among 340,000;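 active = melting point raised past a set limit in the mean and every replicate; inconclusive = no clear call; three in four hits are not shown here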
Target sequence (Q9HCT0 whole entry, looked up): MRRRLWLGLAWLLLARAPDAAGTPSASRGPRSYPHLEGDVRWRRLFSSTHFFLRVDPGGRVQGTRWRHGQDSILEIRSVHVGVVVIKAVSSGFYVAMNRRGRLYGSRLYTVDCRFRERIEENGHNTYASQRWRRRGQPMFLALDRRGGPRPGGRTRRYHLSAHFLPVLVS
T cruzi inh = T. cruzi replication inhibition. T. cruzi beta-gal in NIH3T3, luminescence, 90 h. inhibition, % (concentration not given with the values). hit rate 1.4% among 300,000. AID 1885;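 active = mean inhibition across valid replicates above about 55%, limit read from the data; inconclusive = mean below that limit but half or more replicates reach it; inactive = mean below it, under half of replicates reach it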;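 also: signal also drops with host cell toxicity which is not excluded here; 0% = plate median of DMSO wells and 100% = zero luminescence signal; higher percent means less beta-gal luminescence so fewer parasites; stock transfer was 50 nL into about 50 µL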
MLL AF4-AF9 inh = inhibitors of human MLL-AF4/AF9 interaction. AlphaScreen, biotin-AF4 peptide binding to FLAG-AF9. inhibition, % at 10 µM. hit rate 0.47% among 350,000. AID 651704;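 active = every replicate reaching a set inhibition limit, whatever the replicate mean, cut at about 25% in these data; inconclusive = mean inhibition reaches that limit but some replicates miss it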;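 also: 0% = plate neutral control median and 100% = total signal loss; the record names both 10 and 1 µM as test concentration; the first replicate is given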
Target sequence (P42568 whole entry, looked up): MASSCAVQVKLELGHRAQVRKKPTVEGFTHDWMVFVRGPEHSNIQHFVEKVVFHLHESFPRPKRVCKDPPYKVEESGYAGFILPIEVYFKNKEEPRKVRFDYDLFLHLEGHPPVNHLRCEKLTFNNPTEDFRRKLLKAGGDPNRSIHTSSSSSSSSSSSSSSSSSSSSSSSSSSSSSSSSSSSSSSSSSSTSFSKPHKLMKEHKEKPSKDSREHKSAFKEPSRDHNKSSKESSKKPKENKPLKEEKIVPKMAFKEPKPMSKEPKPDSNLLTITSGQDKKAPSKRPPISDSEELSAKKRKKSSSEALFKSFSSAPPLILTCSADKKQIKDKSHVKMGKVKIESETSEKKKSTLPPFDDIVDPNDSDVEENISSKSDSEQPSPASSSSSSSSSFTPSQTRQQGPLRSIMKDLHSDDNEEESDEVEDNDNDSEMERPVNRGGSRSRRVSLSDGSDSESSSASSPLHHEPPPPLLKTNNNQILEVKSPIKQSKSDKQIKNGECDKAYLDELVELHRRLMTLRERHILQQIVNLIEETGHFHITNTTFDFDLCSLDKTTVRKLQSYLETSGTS
Ecoli rRNA inh OD600 = further read-out of Ecoli rRNA inh, marked with its call; OD600 change, %; measured here: OD600 growth;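 optical density of the mix in the first replicate; 0 = DMSO median and -100 = no signal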
Ecoli rRNA inh RFP = second read-out of Ecoli rRNA inh, no call of its own (marks repeat the call); RFP signal change, %; measured here: RFP humanized mutant strains;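 first replicate; 0 = DMSO median and -100 = no signal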
The depositor's hits bear a star; i = inactive; ? = inconclusive; . = no result given; & = joins results of further samples.

structure	Beta apoptosis	Ecoli rRNA inh OD600	UCH37 inh	T cruzi inh	FGF22 binding	MLL AF4-AF9 inh	Ecoli growth	Ecoli rRNA inh	Ecoli rRNA inh RFP	A1 inh
O=C(NCc1ccc(Cl)cc1)c1cc(=O)[nH]c2ccc(S(=O)(=O)N3CCOCC3)cc12	0	9	-5.0	3	i	-17	0.7	6	1.4	-0.5
NC(=O)c1nn(-c2ccccc2)nc1NC(=O)CN1CCOCC1	-9	0	-2.2	2	i	0.7	0.69	8	-5.5	0.5
CCN1CCN(c2nc3ccccc3nc2C(C#N)S(=O)(=O)c2ccc(C)c(C)c2)CC1 (centres undefined)	-5	21	1.7	-6	.	.	0.72	22	-3.5	0.3
CCCCn1c(N)c(N(CC(C)C)C(=O)C2CCN(S(=O)(=O)c3ccc(F)cc3)CC2)c(=O)[nH]c1=O	6	9	-3.6	-20	i	0.2	0.73	11	0.9	-0.4
CN(Cc1ccc(Cl)c(Cl)c1)C(=O)C1=CC=CN2CCS(=O)(=O)N=C12	-3	4	-16	.	i	-0.5	0.69	6	0.6	1.0
CCn1cc(/C=C(\NC(=O)c2ccccc2Cl)C(=O)NCCN2CCOCC2)c2ccccc21	-4	-8	6.5	0	i	-0.8	0.68	-3	-2.3	1.0
N#Cc1ccc(OCC(=O)NCCCn2ccnc2)cc1	-10	12	2.4	.	i	6.0	0.73	11	-1.0	0.1
CCOc1cc(C(=S)N2CCC(O)CC2)ccc1OS(=O)(=O)c1ccc(Br)cc1	.	-30	3.7	11	i	6.5	0.69	-26	-4.2	-0.5
COc1ccc(NC(=O)CN(Cc2ccccc2)S(C)(=O)=O)c(OC)c1	-5	.	1.3	-20	.	.	0.69	.	.	0.1
Cc1cccc(OCCNC(=O)c2cncc(Br)c2)c1	2	2	4.0	-2	i	-1.6	0.7	10	0.8	0.1
CN(C(=O)c1cc(-c2ccc3c(c2)OCO3)on1)c1ccccc1	-7	0	4.9	-20	i	-0.4	0.65	1	0.9	-4.5
Cc1nn(Cc2ccc(Cl)cc2)c(C)c1N	0	.	2.3	3	.	.	0.71	.	.	-1.5
COc1ccc(C(=O)NC2CC(C)(C)Cc3c2cnn3-c2ccccc2)c(OC)c1 (centres undefined)	3	-60	-0.8	5	i	1.9	0.7	-34	4.7	-0.4
Cc1ccc(C(=O)NCc2ccccn2)cc1S(=O)(=O)N1CCCCC1	-5	3	2.4	0	i	1.3	0.72	3	-0.5	0.0
Cc1csc2ncc(C(=O)NCCC(c3ccccc3)c3ccccc3)c(=O)n12	-9	-38	-67	30	i	-13	0.7	-26	3.2	1.2
CCCn1c(N)c(C(=O)CN(C)CC(=O)Nc2cccc(F)c2)c(=O)[nH]c1=O	-4	5	0.8	.	i	2.4	0.67	0	-0.7	0.9
O=C1CC(c2ccccc2)CC(O)=C1C=NC1CCCC1 (centres undefined)	2	-3	2.3	-9	i	-3.9	0.69	-4	-7.3	-0.1
COc1ccc(-c2cccc([C@H]3[C@@H]4C=CCC[C@@]4(C)C(=O)N3Cc3ccccc3)c2)cc1	-18	-6	1.1	35	i	-1.3	.	15	-2.0	0.6
CC(C)NC(=O)c1onc(CSc2ccccn2)c1C(=O)NC(C)C	1	13	-1.1	-16	i	-1.0	0.71	8	0.2	-0.1
Cc1c(-c2ccccc2)nc(N)c(C#N)c1-c1cccnc1	0	-5	-25	-5	i	.	0.67	9	0.2	-0.5
Cc1ccc(-c2nsc3c(N4CCC(C(N)=O)CC4)ncnc23)cc1	-3	.	-31	3	.	.	0.73	.	.	-1.2
O=C(O)c1cccc2c1Cc1cc(Cl)ccc1-2	.	-24	3.0	.	i	-0.7	0.7	15	-4.3	.
Cc1nc(C)c(N)c(=O)[nH]1	-2	11	5.0	-19	i	-8.0	0.7	14	-0.6	1.5
CCOc1ccc(S(=O)(=O)N2CCN(C(=S)NC3CC3)CC2)cc1	4	-10	2.0	-8	i	0.1	0.69	-15	1.4	0.5
COc1ccc(NC(=O)CC2C(=O)NCCN2C(=O)c2ccc(N(C)C)cc2)cc1 (centres undefined)	-1	4	4.6	5	i	-3.0	0.65	8	-0.9	-0.3
Cc1cccc(-c2noc(CCC(=O)NC3CCCC3)n2)c1	9	-3	4.3	-7	i	1.9	0.72	1	2.2	0.2
O=C(CC1C(=O)NCCN1Cc1ccc(-c2ccccc2)cc1)NCCCn1ccnc1 (centres undefined)	-6	-10	-1.0	-7	i	13	0.69	2	0.3	-0.5
COc1ccccc1C/C(N)=N/OC(=O)c1ccc(C)c([N+](=O)[O-])c1	-2	.	-1.2	4	.	.	0.69	.	.	-1.0
COCCCN1CC(=O)N2C(c3cccc(C)c3)c3[nH]c4ccccc4c3C[C@H]2C1=O (some centres undefined)	-6	-3	2.5	16	i	3.5	0.7	-4	-6.0	0.3
O=C(CSc1nnc(COc2ccccc2F)n1-c1ccccc1)NC1CCS(=O)(=O)C1 (centres undefined)	-5	8	1.2	8	i	-2.2	0.66	9	-0.2	-0.1

New compounds follow:
structure	Beta apoptosis	Ecoli rRNA inh OD600	UCH37 inh	T cruzi inh	FGF22 binding	MLL AF4-AF9 inh	Ecoli growth	Ecoli rRNA inh	Ecoli rRNA inh RFP	A1 inh
CCN(c1ccccc1)c1nc2ccsc2c(=O)s1	7	.	-10	18	.	.	0.64	.	.	0.4
O=C(c1cc(S(=O)(=O)N2CCOCC2)ccc1Cl)N1CCCCC1CO (centres undefined)	3	7	-2.7	.	i	-2.8	0.71	1	-2.4	-0.2
O=C(CSc1nc2ccsc2c(=O)n1-c1ccccc1)N1CCCC1	-4	.	0.6	22	.	.	0.72	.	.	1.1
Cc1cc(NC(=O)c2cc(-c3ccncc3)nc3ccccc23)ccc1Br	11	-3	.	.	i	1.4	.	0	9.1	-0.3
CCc1cccc(CC)c1NC(=O)C1CN(S(=O)(=O)c2ccccc2)CCN1S(=O)(=O)c1ccccc1 (centres undefined)	-6	.	1.2	29	.	.	0.73	.	.	-0.3
CCOC(=O)c1c(C)nn(Cc2cccc(Cl)c2)c1N	-3	-14	1.7	-4	i	-38	0.67	-15	-4.3	0.3
C#CCC(NC(=O)c1ccc(C#N)cc1)C(=O)NCCC (centres undefined)	-12	12	-0.8	.	i	-3.4	0.78	12	-1.1	-1.0
O=C(Cn1c(=O)oc2cc(S(=O)(=O)N3CCCCC3)ccc21)N1CCc2ccccc2C1	-2	4	1.9	-4	i	-5.4	0.71	10	-0.9	0.3
CCOC(=O)CC1=C(C(=O)OCC)C(c2ccc(OC)cc2OC)C(C#N)=C(N)O1 (centres undefined)	-2	.	2.0	1	.	.	0.75	.	.	0.4
COc1ccc(-c2nnc(-c3ccc(C)cc3)o2)cc1	-6	12	-5.9	-11	i	-2.3	0.73	4	-0.6	0.6
O=C(N/N=C/c1ccncc1)c1cnccn1	-5	9	.	-5	i	.	.	12	0.3	1.6
Cc1ccc(N2CC(C(=O)NCCN3CCOCC3)CC2=O)cc1 (centres undefined)	-4	11	0.7	-3	i	-0.4	0.67	11	-0.2	0.0
COc1ccc(Nc2nc(-c3c[nH]c4ccccc34)cs2)cc1	.	.	0.9	-17	i	3.3	0.73	.	.	-1.0
C/C(=N\NC(N)=O)C1CC(CC(C)C)C(=O)O1 (centres undefined)	1	20	.	-11	i	-0.3	.	17	1.3	0.1
O=C(Cn1cc(C(F)(F)F)cc(Cl)c1=O)NCc1ccc(F)cc1	3	7	3.6	-8	i	-6.4	0.65	5	-2.2	-0.1
CCN1CCN(C(c2cccs2)C(C)NC(=O)C(=O)N2CCCCC2)CC1 (centres undefined)	-6	4	-1.0	-7	i	-2.0	0.67	9	2.9	-0.4
CCN1CCN(CCCNC(=O)c2cc3c(=O)oc4ccc(C)cc4c3s2)CC1	3	-9	-19	19	i	2.3	0.67	-2	2.4	0.2
Cc1nnc(SCC(=O)O)s1	-6	12	1.4	-17	i	1.8	0.71	21	1.8	-0.2
CC1CCCN(CC(=O)N2c3ccccc3Sc3ccccc32)C1 (centres undefined)	-1	-12	3.5	30	i	2.8	0.7	-12	4.0	0.2
O=C(CCS(=O)(=O)c1ccc(Cl)cc1)N1CCN(S(=O)(=O)c2cccs2)CC1	.	.	0.0	0	.	.	0.71	.	.	0.6
CCC(C)Sc1ccc([C@@H]2[C@H]3C(=O)N(CC)C(=O)[C@H]3[C@]3(C(=O)OC)CCCCN23)cc1 (some centres undefined)	10	10	-0.8	.	i	.	.	68	49	-0.1
CCN1CCN(C(=O)c2ccc3c(c2)S(=O)(=O)c2ccccc2C3=O)CC1	-5	9	5.8	-7	i	1.1	0.72	22	-1.7	1.1
CC(C)=CCc1c(O)cc(O)c2c(=O)c3c(CC=C(C)C)c(O)ccc3oc12	28	.	6.4	-8	.	.	0.74	.	.	0.0
Cc1cc(C)cc(N(C(=O)c2sc(C)nc2C)C(C(=O)NCc2ccco2)c2ccccc2)c1 (centres undefined)	3	16&4	2.7	-3	i	-51	0.66	4&5	-7.7&0.8	0.0
CC(C)Nc1nc(Cl)nc(NCCOc2ccccc2)n1	1	7	5.1	3	i	-1.9	0.72	4	1.5	0.6
C(=N\n1cnnc1)/c1ccc(OC2CSC2)cc1	2	3	.	?	i	-1.3	.	4	1.5	0.1
Cc1ccc(S(=O)(=O)NCc2ccc(C(=O)N3CCN(c4ccccn4)CC3)cc2)cc1	3	-26	0.6	-5	.	.	0.71	-17	13	-0.7
O=C(NC1CCCCC1)C1(c2ccccc2)CC1(Cl)Cl (centres undefined)	-3	-14	-0.3	6	i	-3.8	0.7	-4	-0.8	0.1
O=C(NCc1cccc(C(F)(F)F)c1)C1CCN(c2ncccn2)CC1	-10	.	-4.4	5	.	.	0.67	.	.	-0.4
CCOC(=O)C1CCN(C(=O)/C=C/c2ccccc2)CC1	2	5	1.0	-1	i	-3.5	0.69	7	0.6	-0.7
CCc1nc2nc(C)c(NS(=O)(=O)c3ccc(CC(C)C)cc3)c(=O)n2[nH]1	-6	-8	1.7	-3	i	-4.4	0.63	-5	-2.0	1.0
CC(C)c1ccc(C2CC(=O)c3cnc(NC(=O)c4ccco4)nc3C2)cc1 (centres undefined)	6	-15	1.9	-12	i	1.9	0.68	-1	0.9	0.5

Fetched by compound from above, two records:
structure	Beta apoptosis	Ecoli rRNA inh OD600	UCH37 inh	T cruzi inh	FGF22 binding	MLL AF4-AF9 inh	Ecoli growth	Ecoli rRNA inh	Ecoli rRNA inh RFP	A1 inh
CCOc1cc(C(=S)N2CCC(O)CC2)ccc1OS(=O)(=O)c1ccc(Br)cc1	.	-30	3.7	11	i	6.5	0.69	-26	-4.2	-0.5
CN(Cc1ccc(Cl)c(Cl)c1)C(=O)C1=CC=CN2CCS(=O)(=O)N=C12	-3	4	-16	.	i	-0.5	0.69	6	0.6	1.0

These rows are one share of the data, so the mix of outcomes need not match the whole.
